D2 agonist – activates the human D2 dopamine receptor; AID 624465; actives 0.084% (n = 360,000); activation, % (no concentration beside the values); DiscoveRx PathHunter D2 beta-arrestin, luminescence, 90 min; 100% = 57 uM dopamine signal; P14416; in the data active = activation above about 40%; inconclusive = about 15% to 40%; inactive = below about 15%; further: compound concentration not given in the record; the text of the record calls up to 30% inactive
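DiscoveRx PathHunter D2 beta-arrestin cells (2,100/well) attached overnight, then compound-stimulated 90 min at 37 C in HBSS/10 mM HEPES/0.1% Tween-20 buffer; beta-galactosidase complementation read by luminescence after 1 h at ambient temperature. Dopamine 57 uM final (EC100) as control.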
CtBP-E1A blk – CtBP/E1A binding inhibition | AlphaScreen GST-E1A/His-CtBP binding, 1536-well; stronger effect = lower value; control for the full effect not named in the record | activity change, % (concentration not given with the values) | actives 0.49% (n = 340,000); in the data active means activity change below about -65%; inconclusive means about -30% to -65%; inactive means above about -30%; further: on the % scale 0 is the no-effect control and ±100 the full control effect
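GST-E1A and His-tagged CtBP (125 nM each as 5X stock) were preincubated with pin-transferred compound for 2 h at 37 °C in the dark, then glutathione donor and nickel acceptor beads were added for 1 h before AlphaScreen reading.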
D2 PAM – potentiates the human D2 dopamine receptor allosterically. DiscoveRx D2 beta-arrestin cells, luminescence, 90 min; 100% = 57 uM dopamine signal. actives 0.23% (n = 360,000). potentiation, % (concentration not given with the values); active = potentiation of 50% or more; inconclusive = 30% to 50%; inactive = 30% or less;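 further: compound concentration not given in the record; tested on top of an EC20 dose of dopamine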
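D2 cells co-treated with compound plus 50 nM dopamine (EC20) for 90 min at 37 deg C to detect potentiation. Beta-arrestin recruitment was read as enzyme-fragment luminescence after 1 h at ambient temperature. Full response was set by 57 uM dopamine.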
PINK1 expr mod – changes PINK1 expression. Potency, µM (series often up to 76.6 µM), for inactives: at the highest dose activation (PINK1 increase), most hits filed as activators. AID 624263. PINK1 immunofluorescence, high-content cytometry, 24 h. actives 0.2% (n = 410,000); active = well fitted activation curve with a large enough effect; inconclusive = small, poorly fitted or top-dose-only effect; inactive = flat fitted curve, though single readings scatter; cell line not stated here;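 further: potency means the concentration at half of the fitted maximal effect; % of control where 0% means no effect; nearly all actives have a fitted effect of over 65% in size; a mitochondrial uncoupler was the plate control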
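Readout is PINK1 immunofluorescence, quantified alongside mitochondrial, cell and nuclear markers by laser-scanning microplate cytometry. Cells from a stable line were exposed to compound titrations (5 concentrations) for 24 hours, with CCCP controls.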
Sfp PPTase inh – Sfp phosphopantetheinyl transferase inhibition. actives 3.5% (n = 310,000). Potency, µM, without a hit: max response, negative = inhibition, usual class: inhibitors. AID 1490. Q9F4F7. Biochemical Sfp PPTase activity, qHTS; active means well fitted inhibition curve with a large enough effect; inconclusive means small, poorly fitted or top-dose-only effect, or another doubt; inactive means no such curve, though single readings can be large or run the other way;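 further: the enzyme is Sfp with the accession as filed and its product quenches rhodamine fluorescence; potency means the concentration at half of the fitted maximal effect; 0% = enzyme reaction without inhibitor and -100% = no enzyme wells; top concentration of the series not given in the record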
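With Hepes-Na pH 7.6 buffer containing 10 mM MgCl2, Sfp (15 nM) modified BHQ-2-YbbR (12.5 uM) using rhodamine-CoA (5 uM). Two reads 30 minutes apart at 525/598 nm yielded each well's rate.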
TRPV1 potentiator – enhances activation of the human vanilloid receptor TRPV1. potentiation, % at 8.33 µM. Q8NER1. actives 0.02% (n = 320,000). TRPV1-expressing cells, Fluo-8 calcium influx, capsaicin EC20 potentiation; host cell line not named in the record; control for the full effect not named in the record; active means potentiation above 80%; inconclusive means 30% to 80%; inactive means below 30%; further: 0% is about no effect
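Fluo-8 calcium influx in TRPV1-expressing cells, kinetic read (ex 480/em 520 nm). Compound added and read 3 min for agonist activity, followed by capsaicin at EC20 final and 2 min further read for enhancement.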
Six1-Eya2 inh – inhibitors of human Six1/Eya2 interaction. Q15475+O00167. AlphaScreen GST-Six1/His-Eya2 binding, biochemical; stronger effect = lower value; control for the full effect not named in the record. activity change, % (no concentration beside the values). actives 0.56% (n = 360,000). AID 651725; in the data active = activity change below about -65%; inconclusive = about -30% to -65%; inactive = above about -30%; further: on the % scale 0 is the no-effect control and ±100 the full control effect; compound concentration not given in the record
Target sequence (O00167 whole entry, looked up): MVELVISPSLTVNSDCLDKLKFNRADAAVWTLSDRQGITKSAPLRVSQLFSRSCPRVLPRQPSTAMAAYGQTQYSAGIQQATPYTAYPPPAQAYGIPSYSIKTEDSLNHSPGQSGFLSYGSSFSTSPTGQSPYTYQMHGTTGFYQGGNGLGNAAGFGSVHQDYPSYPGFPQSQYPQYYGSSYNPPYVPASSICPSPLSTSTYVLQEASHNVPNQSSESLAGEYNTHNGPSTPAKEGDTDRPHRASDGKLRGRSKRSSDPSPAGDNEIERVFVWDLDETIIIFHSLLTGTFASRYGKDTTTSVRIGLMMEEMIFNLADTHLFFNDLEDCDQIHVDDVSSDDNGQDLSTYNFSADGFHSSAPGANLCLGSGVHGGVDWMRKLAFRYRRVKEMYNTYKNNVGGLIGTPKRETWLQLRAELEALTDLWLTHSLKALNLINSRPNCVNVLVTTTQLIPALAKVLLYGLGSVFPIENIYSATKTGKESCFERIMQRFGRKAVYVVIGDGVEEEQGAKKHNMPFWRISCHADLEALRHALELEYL
Target sequence (Q15475 whole entry, looked up): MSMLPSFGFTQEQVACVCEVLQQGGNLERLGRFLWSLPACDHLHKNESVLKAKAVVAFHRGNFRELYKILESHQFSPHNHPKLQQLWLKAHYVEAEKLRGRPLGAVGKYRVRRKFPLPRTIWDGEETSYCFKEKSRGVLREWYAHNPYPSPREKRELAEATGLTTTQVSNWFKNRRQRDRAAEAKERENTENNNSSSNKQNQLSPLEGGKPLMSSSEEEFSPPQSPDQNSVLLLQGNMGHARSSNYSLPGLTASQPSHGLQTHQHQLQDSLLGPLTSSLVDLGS
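Six1/Eya2 binding was read as AlphaScreen signal after compounds were pinned into GST-Six1 plus His-tagged Eya2 (5X stock 250/500 nM) in pH 8.0 Tris/NaCl/TCEP buffer, beads added, then incubated 1 h, 37 C, dark.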
The depositor's hits bear a star; ? = inconclusive; / = not tested or not shown; & = joins results of further samples; [ ] = another dose, or the depositor's remark. Compounds were not picked by outcome, and some 3.7% of all compounds hit somewhere here.

SMILES | D2 agonist | CtBP-E1A blk | D2 PAM | PINK1 expr mod | Sfp PPTase inh | TRPV1 potentiator | Six1-Eya2 inh
CCCc1nnc(SCC(=O)N2CCCC(C)C2)n1CC1CCCO1 (stereo not given) | -2.0 | 1.0 | 3.2 | -1.2% | 9.0% | -1.5 | 1.6
O=C(CSc1nnc(NC2CC2)s1)c1ccc[nH]1 | -0.9 | 5.7 | -6.6 | -1.0% | / | / | 3.9
COC(=O)c1cc(OC)c(OC)cc1NC(=O)CCc1ccc(C)o1 | -3.7 | -14.3 | -19.5 | -3.3% | -7.3% | -10.9 | -17.6
Cc1cccc(-n2c(SCCC(=O)O)nnc2-c2cccs2)c1C | -4.1 | -0.2 | -5.6 | -2.3% | 12.2% | ? | 3.8
Cc1cc2ccccc2n2c(SCC(=O)N3CCOCC3)nnc12 | 0.4 | 0.0 | -7.1 | -2.3% | 9.6% | 5.4 | -9.5
O=C(COC(=O)c1ccccc1NCCO)NCC1CCCCC1 | -1.1 | 1.1 | -2.9 | -0.2% | / | 16.4 | 2.7
CN1CCc2c1nc1ccccc1c2N (tested in a mixture with another compound) | 3.5 | -4.2 | -9.6 | 1.9% | 4.3% | 0.3 | -16.3
C=CCn1c(SCc2csc(C)n2)nc2scc(-c3ccc(C)o3)c2c1=O | 1.5 | 2.1 | -3.9 | 24.2%[38.3 µM] | 11.2µM* | -4.6 | -1.3
C=CCN(Cc1nc(-c2ccccc2)no1)C(=O)c1ccoc1C | -2.8 | -2.4 | -1.1 | -1.6% | 22.2% | 3.5 | -9.2
CN1C(=O)c2ccc(N(C)C)cc2C1=O | -0.6 | -3.1 | -5.9 | -0.1% | -3.8% | 8.1 | 10.4
CCN(CC)C(=O)CN1CCC(n2c(C)nc3cc(C(F)(F)F)ccc32)CC1 | -2.9 | -4.2 | -17.9 | -0.8% | 8.0% | 25.3 | 3.5
O=C(CCCn1c(=S)[nH]c2ccsc2c1=O)NCCc1ccccc1 | 0.6 | / | -12.4 | 0.1% | 2.0% | -6.8 | 3.6
O=C(O)C1CSC(c2coc3ccccc3c2=O)N1 (stereo not given) | -2.3 | -23.3 | -0.9 | 4.7% | 44.7µM* | -4.1 | -2.9
C=CCOc1ccc(C2/C(=C(\O)c3c(C)[nH]c(C(=O)OC)c3C)C(=O)C(=O)N2CCN(C)C)cc1 (stereo not given) | 0.9 | 5.2 | -3.8 | 0.1% | 3.1% | 10.8 | 2.3
Cc1ccc(C)c(NC(=O)c2cnc3n(c2=O)CCS3)c1 | 7.0 | 5.7 | -20.6 | 2.2% | -3.5% | 26.5 | 1.2
CCOC(=O)N1CCN(C(=O)c2ccc(-n3c(C)ccc3C)cc2)CC1 | 1.6 | 3.8 | 1.2 | 0.0% | 10.6% | 5.7 | -10.1
COc1ccc(C2(O)CCN(CC(=O)Nc3nc(-c4ccccc4)cs3)CC2)cc1 | -0.5 | -16.3 | 1.4 | 0.1% | 14.5% | 3.8 | -7.0
O=C(c1cc(Cl)c(=O)n(Cc2ccccc2)c1)N1CCOCC1 | 1.7 | 4.0 | 8.8 | 0.1%[38.3 µM] | 14.9% | 3.7 | 3.4
c1csc(CCNc2ncnc3sc4c(c23)CCC4)c1 | -3.7 | 4.4 | -9.8 | 1.2% | -0.6% | 5.5 | 0.7
Cc1ccc(NC(=O)CN2C(=O)NC3(CCCC3)C2=O)cc1S(=O)(=O)N1CCCCC1 | 0.3 | / | -8.9 | 0.2% | / | 11.1 | 3.0

Just Six1-Eya2 inh, for some of the entries so far:
SMILES	Six1-Eya2 inh
O=C(CCCn1c(=S)[nH]c2ccsc2c1=O)NCCc1ccccc1	3.6
Cc1cccc(-n2c(SCCC(=O)O)nnc2-c2cccs2)c1C	3.8

Exported with values under each structure: part of the list above.
Screens in order: D2 agonist, CtBP-E1A blk, D2 PAM, PINK1 expr mod, Sfp PPTase inh, TRPV1 potentiator, Six1-Eya2 inh
- CN1CCc2c1nc1ccccc1c2N (tested in a mixture with another compound)
    3.5, -4.2, -9.6, 1.9%, 4.3%, 0.3, -16.3
- C=CCn1c(SCc2csc(C)n2)nc2scc(-c3ccc(C)o3)c2c1=O
    1.5, 2.1, -3.9, 24.2%[38.3 µM], 11.2µM*, -4.6, -1.3
- C=CCN(Cc1nc(-c2ccccc2)no1)C(=O)c1ccoc1C
    -2.8, -2.4, -1.1, -1.6%, 22.2%, 3.5, -9.2
- CN1C(=O)c2ccc(N(C)C)cc2C1=O
    -0.6, -3.1, -5.9, -0.1%, -3.8%, 8.1, 10.4
- CCN(CC)C(=O)CN1CCC(n2c(C)nc3cc(C(F)(F)F)ccc32)CC1
    -2.9, -4.2, -17.9, -0.8%, 8.0%, 25.3, 3.5

(listing goes on)
SMILES | D2 agonist | CtBP-E1A blk | D2 PAM | PINK1 expr mod | Sfp PPTase inh | TRPV1 potentiator | Six1-Eya2 inh
CC(=O)c1sc(NC(=O)C2CSC3(C)CCC(=O)N23)nc1-c1ccccc1 (stereo not given) | -6.1 | -6.9 | -3.0 | -5.1% | / | 5.4 | -0.1
Cc1ccc(/C=N/Nc2cccc(C(=O)O)c2)s1 | 3.5 | -7.9 | 22.4 | -0.3% | -8.5% | 4.6 | -15.4
CCC1C(=O)N=C(SCC(=O)Nc2ccc(C)cc2)N(c2ccccc2)C1=O (stereo not given) | 10.3 | 8.8 | 1.6 | 2.6% | 19.2% | 10.2 | 7.6
Cc1cccc(NS(=O)(=O)c2cccc(C(=O)NCC(c3ccc(F)cc3)N3CCOCC3)c2)c1 (stereo not given) | 0.4 | -5.2 | -5.5 | 3.4% | / | / | 7.7
COC(=O)c1sccc1-c1ccc(/C=N/OCc2c(Cl)cccc2Cl)o1 | -1.3 | 11.6 | -23.7 | / | 4.0% | / | 4.5
CSCC[C@H](NC(=O)c1nn(C)c(=O)c2ccccc12)c1nc2ccccc2[nH]1 | -2.1 | 9.2 | -26.6 | 0.3%[38.3 µM] | 6.4% | 4.9 | -10.8
Cc1ccc(-c2nc3ccc(Cl)cn3c2CC(C)(C)C)cc1 | 1.5 | 1.4 | 4.0 | ? | / | / | 9.8
Cc1ncc(CN2CCC(CO)(CCc3ccccc3)CC2)s1 | -2.8 | -1.9 | -22.8 | 1.2% | 15.3% | -7.0 | 3.4
O=C(C(c1ccccc1)c1ccccc1)N1CCN(CCN2C(=O)c3cccc4cccc(c34)C2=O)CC1 | 2.8 | -13.7 | -5.0 | 7.8% | 4.8% | 1.9 | -26.0
CC(C)C(NC(=O)C(NC(=O)C1OC2OC(C)(C)OC2C2OC(C)(C)OC12)C(C)C)C(=O)O (stereo not given) | -4.5 | -2.0 | 0.4 | 0.3% | -1.6% | -18.9 | -2.9
Cc1cc(C)c(S(=O)(=O)Nc2cccc(-n3cnnn3)c2)c(C)c1 | -1.0 | / | 0.0 | 1.7% | 14.2% | 8.0 | 2.6
Cc1ccc(C(=O)Nc2cccc(C(=O)N/N=C/c3ccc(F)cc3)c2)cc1 | 2.2 | -4.2 | -15.4 | 15.6% | 12.8% | 13.0 | -13.3
Cc1cccc2c(N=NC(=O)C(C)n3cnc4ccccc4c3=O)c(O)[nH]c12 (stereo not given) | -1.9 | 0.0 | 2.4 | 0.5% | / | / | 19.3
CCCCCn1cnnc1SCC(=O)c1c(N)n(C2CC2)c(=O)[nH]c1=O | -2.4 | -4.7 | 1.8 | 3.3% | / | -8.4 | 6.3
O=[N+]([O-])c1ccc(Cl)c(S(=O)(=O)n2ccnc2)c1 | 2.1 | 6.8 | 5.0 | 0.1% | -3.1% | -3.2 | 4.2
O=C(CSCc1ccc(Br)cc1)N1CCCC1 | -3.3 | 9.7 | -2.3 | 4.4% | 12.8% | -9.8 | 8.0
CC(=O)NS(=O)(=O)c1ccc(N)cc1 | 2.0&-0.8 | -1.5&-1.3 | -6.2&-2.8 | -0.1%&4.1% | 3.4%&14.1%&9.1%&17.4% | 12.5&5.5 | -3.0&-1.5
CCCNC(=O)COC(=O)CCC(=O)c1ccc(F)cc1 | -0.1 | 0.5 | 15.7 | 0.5% | -8.9% | 3.9 | 1.5
O=S(=O)(c1ccccc1)c1nc(-c2ccccc2)oc1NCCCN1CCOCC1 | -4.7 | -3.8 | -32.8 | -0.3% | 11.1% | -24.4 | -22.3
C/C(=N\NC(=O)c1ccc(Cn2cc(Br)cn2)o1)c1cccc(NC(=O)C(C)(C)C)c1 | -0.6 | -1.5 | 22.5 | 4.1% | 14.2% | -7.7 | 4.1
O=C(c1nnc(Cc2ccc(Cl)cc2)o1)N1CCOCC1 | -3.9 | -1.1 | -7.0 | 1.5% | 5.1% | -17.6 | 3.9
COC(=O)c1ccc(NC(=O)CSc2nnc(Cc3cccn3C)n2-c2ccc(F)cc2)cc1 | -2.8 | -11.2 | -0.7 | 5.0% | ? | 11.5 | -13.1
Cn1c(Br)nc2c1c(=O)n(CC(O)COc1ccccc1)c(=O)n2C (stereo not given) | -2.0 | -0.8 | 2.0 | -0.8% | 14.0% | ? | -7.9
N#CCc1nn2c3c(cnc2c1C#N)C(=O)CCC3 | 10.2 | 0.0 | 15.7 | 1.0% | -18.2% | -1.1 | -4.3
CC(C)C(=O)NC(NC(=S)NC1CCS(=O)(=O)C1)C(Cl)(Cl)Cl (stereo not given) | 2.7 | 10.6 | -26.8 | ? | 11.2% | -0.8 | 0.0
CC1CN(C(=O)COC(=O)c2cccs2)CC(C)O1 (stereo not given) | 2.8 | 8.4 | 7.2 | 1.2% | 8.3% | -0.8 | 2.5
CCOC(=O)c1c(NC(=O)C2CCCCC2)sc2c1CCN(C(C)C)C2 | -3.2 | 3.6 | -14.4 | 16.8% | -9.1% | -3.2 | -8.5
CCOC(=O)C(NC(=O)c1ccccc1)(Nc1cccc(C)n1)C(F)(F)F (stereo not given) | -3.2 | 2.1 | -8.3 | 0.4% | 4.4% | -29.3 | 7.1
CN1CCCCCC1=NC1=C(C#N)CCCC1 | -0.1 | 5.2 | 2.8 | -1.0% | 25.0% | 1.8 | 14.4
CCOC(=O)C1Nc2ccc(C)cc2C2C=CCC12 (stereo not given) | 6.1 | / | -1.9 | 3.1% | / | / | -3.3
O=C(CSc1nnc(C2CC2)n1C1CC1)c1ccc(F)c(F)c1 | -3.6 | / | -0.4 | -0.9% | / | -0.1 | 3.7

Screens as filed in PubChem BioAssay.
